LANA-H2A inh: blockers of LANA interaction with H2A/H2B – biochemical, FP readout, HTS, primary screen | Protein LANA1 (Human herpesvirus 8 type P (isolate GK18)), Q9QR71 | hit rate 0.6% among 320,000 | AID 2629, 2010 | cell-free LANA-H2A/H2B peptide, fluorescence polarization | inhibition, % (concentration not given with the values); in the data active = inhibition mostly above about 10%, no sharp cut-off; inactive = mostly below about 6.7%;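 also: stock transfer was 7.5 nL into about 10 µL; 0% = median of vehicle wells and 100% = median of positive control wells; one replicate is shown; the record names a cut of 25% in any replicate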
Vif TR-FRET: inhibitors of Vif binding to APOBEC3G peptide, primary screen, biochemical, TR-FRET, GST-Vif 1-94, biotin-A3G peptide, dose response retest (AID 1117319) | hit rate 0.57% among 260,000 | inhibition, %; hits with a dose series show IC50 in µM | Virion infectivity factor (Human immunodeficiency virus type 1 group M subtype B (isolate … | TR-FRET GST-Vif / biotin-A3G peptide binding; higher % means a stronger effect; test concentration not given here; strong numbers were not always called active;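 active = above the screen mean plus three standard deviations and confirmed in dose response; inconclusive = results disagree or hit not tested in dose response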;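 also: Vif residues 1-94 fused to GST binding biotinylated APOBEC3G peptide 110-148; 0% = full assay without inhibitor and 100% = GST in place of GST-Vif; retest series ran down from 100 µM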
Beta cell apopt: inhibitors of cytokine-induced beta cell apoptosis, primary screen, luminescence | INS-1E cytokine-induced death, ATP luminescence, 48 h; percent of positive-control rescue, neutral wells zero | protection from apoptosis, % (test concentration not listed) | hit rate 0.8% among 300,000 | AID 435005, 2010;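 active = all replicates at 75% or more, or half of them and the mean; inconclusive = half reach 75% but not the mean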;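 also: 0% = cytokine-treated negative control wells and 100% = positive control rescue; higher means more ATP so stronger rescue from cytokine killing; wells of about 40 µL received 100 nL stock; the first replicate is given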
T cruzi inh: inhibitors of intracellular T. cruzi growth, primary screen, luminescence, NIH3T3 host cells. T. cruzi beta-gal in NIH3T3, 90 h. inhibition, % (no concentration beside the values). hit rate 1.4% among 300,000;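 active = mean inhibition across valid replicates above about 55%, limit read from the data; inconclusive = mean below that limit but half or more replicates reach it; inactive = mean below it, under half of replicates reach it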;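 also: signal also drops with host cell toxicity which is not excluded here; 0% = plate median of DMSO wells and 100% = zero luminescence signal; higher percent means less beta-gal luminescence so fewer parasites; stock transfer was 50 nL into about 50 µL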
A1 inh: caspase 3/7 activation in MEF A1-2A-BIM cells, primary screen, A1 inhibitor project, cell-based, luminescence, HTS; hit rate 0.066% among 330,000; caspase activation, % (concentration not given with the values); AID 2462, 2010; Caspase-Glo 3/7 luminescence, 3 h; percent of clofoctol response, vehicle zero;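 active = over half of replicate activation scores above 10%, or exactly half above 10 with the replicate mean above 10; inconclusive = replicate mean below 10 yet half the replicates above 10; inactive = over half of replicates below 10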;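 also: wells of about 30 µL received 50 nL stock; many hits fall short of the cut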
AF4-AF9 inh: inhibitors of AF4 peptide binding to AF9, primary screen, biochemical, AlphaScreen, biotin-AF4 peptide, FLAG-AF9, single point | inhibition, % at 10 µM | hit rate 0.47% among 350,000 | Protein AF-9 (Homo sapiens), P42568;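 active = every replicate reaching a set inhibition limit, whatever the replicate mean, cut at about 25% in these data; inconclusive = mean inhibition reaches that limit but some replicates miss it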;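 also: 0% = plate neutral control median and 100% = total signal loss; the record names both 10 and 1 µM as test concentration; the first replicate is given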
Target sequence (P42568 whole entry, looked up): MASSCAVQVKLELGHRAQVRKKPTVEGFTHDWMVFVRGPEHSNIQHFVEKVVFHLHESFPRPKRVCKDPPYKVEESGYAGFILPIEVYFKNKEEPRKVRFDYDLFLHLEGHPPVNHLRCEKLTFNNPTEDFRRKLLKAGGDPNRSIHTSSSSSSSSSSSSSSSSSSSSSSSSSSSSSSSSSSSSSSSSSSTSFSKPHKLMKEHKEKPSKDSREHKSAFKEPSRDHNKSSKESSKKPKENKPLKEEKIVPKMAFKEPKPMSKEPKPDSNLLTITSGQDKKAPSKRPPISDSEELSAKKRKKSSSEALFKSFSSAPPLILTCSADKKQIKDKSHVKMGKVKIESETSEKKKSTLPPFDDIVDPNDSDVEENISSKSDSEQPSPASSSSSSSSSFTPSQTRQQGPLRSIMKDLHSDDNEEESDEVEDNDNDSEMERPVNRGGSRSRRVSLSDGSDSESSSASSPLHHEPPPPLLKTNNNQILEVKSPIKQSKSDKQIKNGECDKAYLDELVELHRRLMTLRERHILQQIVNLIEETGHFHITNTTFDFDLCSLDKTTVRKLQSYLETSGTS
Calb FLC: C. albicans growth inhibition with fluconazole, primary screen, CaCi-2 strain, Alamar Blue fluorescence | C. albicans CaCi-2 (fluconazole-resistant clinical isolate) + fluconazole, 48 h | growth inhibition, % (test concentration not listed) | hit rate 0.57% among 300,000 | AID 1979, 2009;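 active = most replicates above 75%; inconclusive = exactly half above 75%; inactive = most below 75%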;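 also: all wells also contain fluconazole at 8 µg/ml as a sub-toxic cotreatment; 0% = median of DMSO wells and 100% = median of geldanamycin control wells; wells of about 8 µL received 7.5 nL stock; the first replicate is given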
RanGTP-Impb inh: inhibitors of RanGTP-importin-beta interaction, primary screen, biochemical, FRET, CFP-Ran, YFP-importin-beta, homogeneous; Ran GTPase (GTP-bound) - importin-beta complex; cell-free CFP-Ran/YFP-importin-beta FRET ratio; inhibition, % (no concentration beside the values); hit rate 1.1% among 300,000; AID 2216, 2009;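 active = most replicates above 15%; inconclusive = exactly half above 15%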;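 also: 0% = DMSO wells and 100% = Ran loaded with GDP instead of GTP; wells of about 40 µL received 100 nL stock; the first replicate is given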
The depositor's hits bear a star; ? = inconclusive; nt = not tested or not shown; & = joins results of further samples.

SMILES	LANA-H2A inh	Vif TR-FRET	Beta cell apopt	T cruzi inh	A1 inh	AF4-AF9 inh	Calb FLC	RanGTP-Impb inh
Cc1ccc(S(=O)(=O)N2CCN(c3ccc([N+](=O)[O-])c(NCCN4CCOCC4)c3)CC2)cc1	-4.6	nt	3.9	24.5	1.1	13.8	-31.5	1.5
Cc1ccc(-c2nn3c(C)nnc3c3ccccc23)cc1S(=O)(=O)NCCN1CCOCC1	1.8	-1.9%	11.2	7.7	0.3	nt	5.4	-1.4
Cc1cccc(N(CC(=O)NCc2ccc(F)cc2)C(=O)c2ccco2)c1	2.8	nt	1.4	-6.0	0.0	-14.0	2.3	5.0
CC(C)NC(=O)N(C)C[C@H]1Oc2c(NS(=O)(=O)c3ccccc3)cccc2C(=O)N([C@H](C)CO)C[C@@H]1C	1.5	nt	-15.4	nt	0.1	-0.7&-16.0	nt	nt
COc1cccc(Nc2ncnc3c2cnn3-c2cccc(C)c2)c1	3.8	-2.7%	7.9	32.6	-0.1	nt	-10.9	0.2
Cc1ccc(NC(=S)NCc2ccc(F)cc2)cc1	-4.8	nt	nt	-9.0	0.5	nt	-8.6	-3.5
COc1ccc(NC(=O)c2c[nH]c(=O)n(-c3ccc(C)c(C)c3)c2=O)cc1OC	0.4	18.7%	nt	-5.8	1.4	-5.4	0.0	2.2
C/C(=N\NC(=O)CCn1nnc2ccccc21)c1cccs1	-4.2	nt	-2.5	-16.0	-0.4	-1.8	15.9	3.1
Cn1c(CNc2ccc(Cl)cc2)nc2ccccc21	0.8	-0.4%	-10.6	-3.2	-2.2	nt	-24.8	-1.6
O=C(Nc1ccccc1N1CCOCC1)c1ccccc1NS(=O)(=O)c1ccc(F)c(F)c1	-2.5	-0.4%	44.1	-22.1	-0.2	nt	-8.9	0.9
COc1ccc(S(=O)(=O)N2Cc3ccccc3CC2C(=O)Nc2ccc(O)cc2)cc1OC (stereo not given)	-2.0	2.7%	-4.1	-11.2	0.3	-5.1	-3.9	3.0
Cc1ccccc1OCC(=O)NCC(C)(C)N1CCOCC1	1.4	nt	-1.6	-12.9	-0.6	4.4	2.2	2.8
O=C1/C(=C/c2cccnc2)CCc2c1[nH]c1ccccc21	-19.4	-15.3%	-25.4	0.5	-0.7	4.9	75.9*	2.6
CC(C)c1ccc(-n2cnn(-c3ncccc3[N+](=O)[O-])c2=O)cc1	3.4	-6.7%	-5.2	6.4	-5.1	0.5	5.9	4.1
O=C(Nc1cccc(S(=O)(=O)N2CCOCC2)c1)c1cc2ccccc2o1	-3.8	-1.3%	2.9	7.9	0.3	-19.8	8.6	-2.7
Cn1c(=O)n(C)c2cc(NC(=O)c3cc4ccccc4o3)ccc21	-0.7	4.9%	0.7	-6.5	-0.2	nt	21.0	3.2
O=C(O)c1cccc(S(=O)(=O)Nc2ccc(OCc3ccccc3)cc2)c1	-9.9	-0.2%	-4.8	-9.0	0.7	-7.7	2.7	1.7
O=C(Cn1cc2c(n1)CCCCC2)NCc1cccs1	-0.3	3.9%	1.4	-16.8	-2.4	-6.8	-7.8	1.1
CC(C)(C)OC(=O)NCCCC[C@H](NC(=O)c1[nH]cnc1C(=O)N[C@@H](Cc1ccccc1)C(=O)OC(C)(C)C)C(=O)OC(C)(C)C	-3.3	?	49.8	42.2	-0.2	0.5	-4.0	1.0
CC(Sc1nnc(-c2ccc(OC(F)F)cc2)o1)C(=O)NCC1CCCO1 (stereo not given)	-2.5	nt	0.0	2.2	0.0	1.6	-1.2	0.1
CCOc1ccc(S(=O)(=O)NCCC(=O)N(C)Cc2ccc(C)o2)cc1	-1.4	-3.9%	-4.0	-5.6	0.8	-1.0	-14.8	-0.1
CCN(C(=O)CCNC(=O)Cn1cnc2ccccc2c1=O)c1ccccc1F	0.9	-6.1%	0.5	-1.0	-0.1	5.5	3.2	2.2
CC1=C(C#N)C(c2ccoc2)C(C(=O)OCc2ccccc2)=C(N)S1 (stereo not given)	5.2	?	-2.0	15.2	0.0	nt	0.7	0.8
CCOC(=O)c1sc(=S)n(CC)c1NC(=O)CC	-2.3	2.2%	-5.9	5.3	0.5	nt	-15.5	-3.7
Cc1ccc(-c2cc(N)n(-c3ccccc3)n2)cc1	-0.9	-2.7%	1.8	25.0	-6.4	nt	-15.6	?
SMILES	LANA-H2A inh	Vif TR-FRET	Beta cell apopt	T cruzi inh	A1 inh	AF4-AF9 inh	Calb FLC	RanGTP-Impb inh
O=C(Nc1ccccc1C(=O)O)c1cc(S(=O)(=O)N2CCCCC2)c(Cl)cc1Cl	-9.1	nt	-5.4	58.1*	-1.7	-2.9	-3.8	-1.1
O=c1[nH]c2ccc(NC(=S)Nc3ccccc3)cc2[nH]1	-0.3	8.9%	-2.8	-19.1	-0.8	-2.6	-1.2	4.0
COc1ccc(C(=O)c2c[nH]c(C(=O)NCCCn3ccnc3)c2)cc1	-5.1	nt	-3.1	-10.3	-0.2	0.6	-1.9	-0.2
CCCCOC(=O)c1ccc(NC(=O)CSc2nncn2C)cc1	0.8	7.1%	0.8	8.1	-0.1	nt	-4.8	0.0
COc1cccc2c1Oc1cc([N+](=O)[O-])cc(N(C)C(C)=O)c1C=C2	-0.3	-5.5%	-1.1	-2.5	0.7	7.0	18.9	-1.0
CCC(O)(c1ccccc1)C(CN1CCOCC1)c1ccccc1 (stereo not given)	2.8	-6.4%	2.0	1.0	1.0	0.6	-6.8	-1.4
Oc1ccc(-c2nccc(-c3cccs3)n2)cc1	-0.1	-8.6%	-4.6	2.1	-0.2	nt	-7.4	-1.2
O=C(CSCc1ccc(Cl)cc1)N/N=C/c1c(Cl)cccc1Cl	8.2	13.0%	0.2	-6.0	-0.2	-1.2	-5.6	-1.7
COc1ccc(N(CC(=O)NCc2ccc(F)cc2)S(=O)(=O)c2c(C)n[nH]c2C)cc1	2.3	nt	-0.2	3.4	-2.0	-2.2	-3.0	4.4
COc1ccccc1NS(=O)(=O)c1cc(NC(=O)c2ccccc2[N+](=O)[O-])ccc1N1CCOCC1	1.7	-5.3%	15.8	nt	0.1	-0.5	nt	nt
CCOC(=O)N1CCN(S(=O)(=O)c2ccc3c(c2)CC(C)N3C(=O)C2CC2)CC1 (stereo not given)	-2.2	nt	-1.8	-2.7	-0.2	-6.8	-4.1	-0.2
O=c1c2ccccc2nc(SCc2cc(F)cc3c2OCOC3)n1Cc1ccco1	1.3	8.6%	6.5	28.6	0.4	nt	15.6	9.1
O=C1CN(C(=O)COC(=O)c2cccnc2Cl)c2ccccc2N1	-7.7	7.8%	-3.4	-5.3	-0.8	1.1	-6.7	-0.1
CCOC(=O)c1c(NC(=O)CNCCO)sc(C)c1C	-3.6	7.7%	2.4	4.4	0.0	nt	-5.8	-0.2
CCOC(=O)c1csc(NC(=O)c2ccc3c(c2)OCCO3)n1	1.0	-7.7%	5.4	1.7	-1.5	nt	-1.8	-0.8
O=C1CS/C(=C\[N+](=O)[O-])N1c1ccccc1	0.0	11.2%	-0.8	-13.8	-1.0	nt	-0.6	2.1
Cc1cc(C(=O)OCC(=O)N2CC(C)OC(C)C2)c2ccccc2n1 (stereo not given)	-0.5	-7.3%	-2.0	-12.9	0.7	-1.2	9.7	0.3
Clc1ccc(CSc2nnc(NC3=NCCCCC3)s2)cc1	-4.0	7.5%	-9.9	19.6	-0.2	nt	-11.3	4.1
O=C(Nc1ccc(S(=O)(=O)N2CCCC2)cc1)c1cc(F)c(F)cc1Cl	-0.2	nt	-0.5	-4.0	0.6	-0.3	0.9	-2.6
CCOc1cc(-c2n[nH]c(=S)n2Cc2ccccc2)ccc1OC(F)F	nt	-5.2%	0.3	nt	0.1	-5.0	nt	nt
CC(=O)c1sc(NC(=O)CCN2C(=O)c3ccccc3C2=O)nc1C	3.6	-10.1%	-2.6	-6.3	0.1	-2.0	1.5	1.1
COc1ccccc1NC(=O)N1CCN(c2ccccn2)CC1	2.7	?	7.1	0.5	1.2	-4.4	-5.0	-4.4
O=C(O)C1CCCN(S(=O)(=O)c2ccccc2)C1 (stereo not given)	-2.5	-8.7%	-1.0	-14.8	-0.7	-0.2	9.7	4.8
CSc1nnc2c3cc(F)ccc3n(Cc3ccccc3)c2n1	-4.0	-21.6%	1.8	-20.7	nt	nt	-7.1	-1.0
Cc1cc(C)nc(SCC(=O)NC2CCCCC2C)n1 (stereo not given)	-0.1	-3.6%	nt	-6.8	0.1	0.2	-15.2	4.6
SMILES	LANA-H2A inh	Vif TR-FRET	Beta cell apopt	T cruzi inh	A1 inh	AF4-AF9 inh	Calb FLC	RanGTP-Impb inh
CN(C(=O)c1ccc(S(=O)(=O)N(C)C)cc1)c1ccc2ccccc2c1	0.0	nt	nt	14.9	2.1	2.2	4.2	-0.6
COc1cccc(C(=O)NC(C)C(c2cccs2)N2CCOCC2)c1 (stereo not given)	-2.4	-2.8%	3.5	1.0	0.0	-9.6	4.6	3.1
COc1ccc(C2CC3CC(c4ccccc4)N2O3)cc1 (stereo not given)	-2.8	2.2%	nt	-6.7	0.3	nt	24.4	0.5
Cc1cccc(C)c1NC1=NC(=S)N(c2ccc(C(=O)O)cc2)C12CCCCC2	-1.2	-4.9%	-1.0	-1.8	0.7	0.5	27.2	-3.2
CCOC(=O)CNC(=O)Cn1cnc2c(nnn2-c2ccc(F)cc2)c1=O	0.1	48.8%	-4.0	-13.6	-1.8	5.8	-25.3	1.0
Cc1nn(Cc2ccccc2)c(Cl)c1C(=O)OC(C)C#N (stereo not given)	0.2	6.5%	-3.8	0.6	0.2	-4.2	7.4	-0.1
CCOC(=O)c1sc(C)c(C(=O)NCCCN2CCOCC2)c1N	1.2	6.5%	1.6	13.1	0.9	nt	6.4	0.0
CN(c1ccc(C(=O)N2CCCCC2)cc1)S(=O)(=O)c1cccs1	-3.0	nt	0.7	5.7	-0.1	-2.2	3.0	-0.5
O=C(O)/C=C/C(=O)Nc1ccc(Cl)c(C(=O)O)c1	2.7	2.4%	-4.1	-10.4	-1.1	-2.1	2.7	3.7
COc1cc(NC(=O)c2cccs2)ccc1NC(=O)c1ccccc1Cl	-0.3	2.4%	2.6	16.3	0.4	1.2	2.1	0.2
CC(=O)c1cccc(NC(=O)c2ccc([N+](=O)[O-])o2)c1	4.0	nt	-3.2	21.2	0.3	4.8	-2.1	3.9
CCNC(=O)N1CCC(c2nc3ccccc3s2)CC1	-1.8	1.5%	2.6	0.5	0.9	-1.8	-5.9	-1.2
O=C(NC(=S)NCCc1ccccc1)c1ccccc1F	-11.5	nt	3.2	-0.1	1.2	-16.3	-48.6	3.5
O=C(COC(=O)CCc1nc2ccccc2c(=O)[nH]1)NC(=O)NC1CCCC1	-6.6	-3.9%	-11.8	-10.6	0.1	nt	8.1	0.0
CCCc1ccc(OCc2ccc(C(=O)NCc3cccnc3)o2)c(OC)c1	1.5	4.7%	10.1	3.3	0.0	0.4	29.7	3.0
COc1ccc(OC)c(CCNC(=O)c2ccc3c(c2)N(Cc2ccc(F)cc2)CCS3)c1	-1.1	nt	1.5	19.2	0.0	nt	-3.7	4.1
COc1cccc(-c2noc(CCC(=O)NC3CCCCC3)n2)c1	-2.9	-5.5%	-0.7	0.4	-0.3	nt	-13.8	1.8
